Mtb hypoxia rep = PubChem AID 1159583 | M. tuberculosis hypoxia-regulated fluorescent reporter, fluorescence | fluorescence inhibition, % (concentration not given with the values) | 300,000 tested, 0.1% active;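 active = 35 to 45% if threefold the growth effect, above 45% if 1.5-fold the growth effect; inactive = the rest, general growth blockers included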;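 note: wells of about 50 µL received 100 nL stock; 0% = vehicle wells and 100% = reference inhibitor wells; whole bacteria with a GFP reporter of the hypoxia response; strong numbers were not always called active; many hits fall short of the cut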
PrP 5UTR inh = inhibition of PrP 5' UTR reporter expression | cell-based PrP 5' UTR mRNA reporter, plate reader | inhibition, % (no concentration beside the values) | 340,000 tested, 0.35% active;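 active = every replicate at 50% or more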;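 note: 0 = median of the neutral control wells; tested in H4 reporter cells; numbers are from one replicate; inactives centre near -14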
Sa ugtP lethal = growth inhibition of ugtP-null S. aureus, primary screen, RN4220 ugtP deletion, OD600 | 16 h; some inactives read as strong as hits | growth inhibition, % (no concentration beside the values) | 330,000 tested, 0.54% active | AID 1259309, 2017;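 active = z-score under -3 and OD600 up to 0.15 on both plates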;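 note: plate controls were untreated wells for no effect and antibiotic for full effect; wells of about 80 µL received 100 nL stock; the first replicate is given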
Bead autofluor = counter-screen for toxin protease inhibitors: compound fluorescence | compound autofluorescence counterscreen, microsphere flow cytometry; active compounds read high | fluorescence intensity (concentration not given with the values) | 360,000 tested, 3.1% active;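 active = at least 3 SD above the mean of all compounds, about 16000 in these data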;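 note: 100 nL of 1 mM stock went into each well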
BJeLR lethal = MLPCN primary cell-based screen for lethality selective to Ras in HRASV12 cells. AID 1554, 2009. 300,000 tested, 0.17% active. BJeLR (HRASV12) viability, CellTiter-Glo ATP luminescence, 48 h; reference of the scale not given here. inhibition, % (concentration not given with the values);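 active = replicate mean above 50%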;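 note: 50 nL library stock added to about 25 µL; numbers are from one replicate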
RN4220 kill = growth inhibition of S. aureus RN4220, primary screen, OD600; 16 h; 330,000 tested, 0.33% active; AID 1259311, 2017; inhibition, % (no concentration beside the values);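 active = z-score of -3 or lower and OD600 up to 0.18 on both plates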;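 note: plate controls were untreated cells for no effect and reference antibiotic for full effect; stock transfer was 100 nL into about 80 µL; one replicate is shown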
Mtb hypoxia rep growth = also measured in Mtb hypoxia rep; calls as there; growth inhibition, %; measured here: M. tuberculosis growth (absorbance);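 0% = vehicle and 100% = reference antibiotic; read after six days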
* hit, by the source's call; / = no result given.

Screens in order – BJeLR lethal	Bead autofluor	Sa ugtP lethal	Mtb hypoxia rep growth	Mtb hypoxia rep	PrP 5UTR inh	RN4220 kill
- O=C(NC1CCCCCC1)c1cccnc1Sc1ccc(Cl)cc1
→ -8	2129	5	6	7	1	4.0
- Cc1nn(C(=O)CCCn2cc([N+](=O)[O-])cn2)c(C)c1Cl
→ -6	3916	-2	3	-5	-17	1.8
- Cc1ccc(C(C(=O)NC2CCCCC2)N(CC2CCCO2)C(=O)CNC(=O)c2cccs2)cc1 (configuration not stated)
→ 5	9404	0	-5	6	-17	2.5
- COc1ccc(Br)cc1C(=O)Nc1ccccc1N1CCCC1
→ -4	6629	1	9	11	-16	-7.6
- COCCN(C(=O)C1CC1)c1nnc(-c2ccc(C)cc2)s1
→ 0	4213	-11	4	1	-43	-5.4
- CC(=O)c1ccccc1OCC(=O)Nc1cccc(S(=O)(=O)N2CCCC2)c1
→ /	2782	0	-2	13	-10	5.3
- O=C(CCCc1ccccc1)Nc1cccnc1
→ -10	4651	-1	/	/	-44	-1.8
- COc1ccc(C(=O)N2CCN(C)C(=O)[C@@H]2C)cc1OC1CCN(C(C)=O)CC1
→ -7	5542	4	4	5	-3	2.2
- CCOc1ccc2nc(N3CCC(C(=O)Nc4nnc(CC)s4)CC3)sc2c1
→ -11	5246	-5	3	-4	-37	4.9
- COc1ccc(NC(=O)CCCC(=O)OCC(F)(F)C(F)F)cc1
→ 3	9108	7	3	4	-21	5.8
- O=C1c2ccccc2-c2onc3ccc(NCCCn4ccnc4)c1c23
→ 14	/	-20	-6	9	/	-1.9
- Cc1cc(C(=O)COC(=O)c2cc(O)c3ccccc3c2O)c(C)n1CC1CCCO1 (configuration not stated)
→ /	3055	6	7	8	-18	10
- S=c1[nH]nc(-c2cccnc2)n1N=C/C=C/c1ccco1
→ /	/	9	8	19	/	14
- CN(C)CCNc1oc(/C=C/c2ccccc2)nc1C#N
→ 1	2552	-2	12	9	-17	2.6
- O=C1N=C(N2CCOCC2)S/C1=C\c1ccncc1
→ 13	4132	-1	9	4	-26	2.7
- CC[C@]12c3[nH]c4cc(CCC(=O)N(C)C)ccc4c3CCN1C(=O)[C@@H](CC(=O)NCc1ccc(OC)c(OC)c1)C[C@@H]2C(=O)N1CCN(C(=O)C2CC2)CC1
→ /	2999	-1	8	-17	0	3.2
- Cc1cc(C)c(S(=O)(=O)c2ccc(Cl)cc2)c(=O)[nH]1
→ 3	3771	3	1	13	-7	4.0
- COC(=O)c1cccc(NC(=O)CCCOc2ccccc2)c1
→ -2	3278	-5	7	9	-10	-2.7
- CN(C(=O)CCCN1C(=O)c2ccccc2C1=O)C1CCCCC1
→ /	/	3	5	8	-9	2.4
- O=C(NNC(=S)NC(=O)c1cccnc1)c1ccc(F)cc1
→ -3	4230	-3	-3	-6	-20	14
- Cc1cc(OC(C)C(=O)NCc2ccccn2)c2c(C)c(C)c(=O)oc2c1 (configuration not stated)
→ -11	4681	10	0	8	0	3.3
- COCCNC(=O)CS(=O)(=O)Cc1nc(-c2ccc(C)cc2)oc1C
→ -13	6391	0	8	-2	-9	-10
- CSC1=NCCN1C(=O)COc1ccc2ccccc2c1
→ 9	6430	1	/	/	-11	1.3
- FC(F)(F)c1cccc(Cn2cnc(NC(=S)NCCc3ccccc3)n2)c1
→ 2	5087	-10	-2	4	-24	-3.0
- CCOC(=O)C1CCCN(C(=O)c2ccc(Cl)c(S(=O)(=O)N3CCCCCC3)c2)C1 (configuration not stated)
→ 4	3693	5	9	12	-1	1.8
- COc1ccccc1C=CC(=O)Oc1cccc2cccnc12
→ /	/	-9	5	4	/	5.9
- O=C(/C=C\c1ccccc1OC(=O)c1ccccc1F)c1cc2ccccc2o1
→ -13	2029	36	6	4	-86	53
- O=C1Nc2ccc(S(=O)(=O)N3CCCC3)c3ccc(S(=O)(=O)N4CCCC4)c1c23
→ -2	5807	-3	2	-2	-2	0.2
- COc1ccccc1C/C(N)=N/OC(=O)COc1ccc2ccccc2c1
→ 0	5661	63	10	4	8	1.1
- O=C(N/C(=C/c1cccc([N+](=O)[O-])c1)C(=O)N1CCCCC1)c1ccco1
→ -3	5418	4	4	14	-23	3.7
- O=C1CN(C(=O)CNCc2ccc(Cl)cc2)c2ccccc2N1
→ -6	4475	6	-8	11	-16	0.1
- Cc1nnn(C23C[C@@H]4C[C@@H](CC(C(=O)N5CCN(c6ccccc6)CC5)(C4)C2)C3)n1
→ -2	3837	11	2	12	-17	0.5
- O=C(NCCc1ccccc1Cl)C1CCC(=O)N(CC2CCCCC2)C1 (configuration not stated)
→ -4	5508	2	-3	6	-19	3.4
- COc1ccc(-c2ccc(OC)c(OC)c2OC)c(OC)c1OC
→ /	4137	4	14	22	-10	2.5
- Cc1cccc(OCCCn2c(=O)oc3ccccc32)c1
→ 9	4490	1	9	0	-43	6.1
- COc1ccc(NC(=O)/C(N=Nc2cc(S(=O)(=O)Nc3ccc(OC)cc3)ccc2OC)=C(\C)O)cc1
→ 2	4805	-10	0	-11	9	4.3
- COc1cc(NC(=O)C2=CC(c3ccco3)=NS(=O)(=O)N2C)cc(OC)c1OC
→ 2	4170	-5	3	2	-2	-1.7
- Cc1ccc2cc(C)c3nnc(SCC(=O)NCc4ccco4)n3c2c1
→ -6	11058	18	3	5	-18	-0.4
- COc1cc(OC)c2c(-c3ccccc3)cc(=O)oc2c1C(CCN1CCCCC1)c1ccc(N(C)C)cc1 (configuration not stated)
→ 4	4201	-6	10	-4	6	-5.5
- CCCc1ccc(-c2csc(NC(=O)Cc3cccs3)n2)cc1
→ 9	2865	18	-6	-2	-26	-3.5
- Cc1ccc(-n2c3c(c(=O)[nH]c2=O)C(NS(=O)(=O)c2ccc(Cl)cc2)(C(F)(F)F)C(=O)N3)cc1 (configuration not stated)
→ 11	10303	1	-5	-2	-3	2.8
- CCC1=Nc2cc(C(=O)NCC3CCCO3)ccc2Sc2ccc(Cl)cc21 (configuration not stated)
→ 3	4310	4	2	2	7	1.9
- O=C(Cc1ccc(F)cc1)Nc1cccc(S(=O)(=O)N2CCCC2)c1
→ 8	4996	4	-3	7	-15	2.8
- COc1ccc(C)cc1NC(=S)NNC(=O)c1ccccc1Cl
→ /	9604	3	1	1	-24	4.3
- O=C(NN=Cc1ccc2nccnc2c1)c1ccccc1O
→ /	/	2	-4	-13	/	3.9
- O=c1c2ccccc2ncn1-c1ccccc1F
→ -8	4145	-6	5	5	-18	5.1
- COc1ccc(-c2[nH]n(-c3ccc([N+](=O)[O-])cc3)c(=O)c2C=NCC2CCCO2)cc1 (configuration not stated)
→ 0	4581	1	-5	-1	-3	-5.1
- Cc1c(Cl)cccc1Nc1nc(N)nc(CN2CCc3ccccc3C2)n1
→ 17	4392	-8	/	/	-37	0.2
- CC1=CC(O)C(O)C2(C)C1CC1OC(=O)CC3C(C)C(O)C(=O)C2C13CO (configuration not stated)
→ /	2863	3	-4	7	-41	1.9
- COc1ccc(-c2nc(CS(=O)(=O)CC(=O)NC3CCCCC3C)c(C)o2)cc1 (configuration not stated)
→ 1	5597	-6	11	8	-23	5.1
- COc1ccc(C(=O)Nc2c(F)c(F)c(F)c(F)c2F)c(OC)c1
→ 0	2950	-7	7	14	-19	-8.1
- CC1=NC(=O)C(N=Nc2cccc(O)c2)N1c1ccccc1 (configuration not stated)
→ 6	16879*	-16	-1	2	-160	-1.1
- O=C(Nc1ccccc1)[C@@H]1CC=C[C@@H]2CCN(Cc3ccccc3)C(=O)[C@@H]21
→ -14	3554	/	/	/	-6	/
- CCCCC(CC)C(=O)Nc1cc(C(=O)NCc2ccc(C)cc2)ccc1N1CCC2(CC1)CC(c1cccc(Br)c1)=NO2 (configuration not stated)
→ /	4314	-11	8	1	-14	2.1
- O=C(CS(=O)(=O)c1c[nH]c2ccccc12)NC1CCCCC1
→ -4	4336	6	11	1	-13	-0.3
- Cc1cccc(NC(=O)CNC(=O)c2ccc(-n3cncn3)c([N+](=O)[O-])c2)c1C
→ -4	5277	5	10	12	-12	-0.8
- Cc1nnc(NC(=O)CSc2cn(CCNC(=O)c3ccccc3)c3ccccc23)s1
→ 9	6810	-6	15	5	4	-5.7
- COc1ccc(CNC(=O)/C(C)=C\C(=O)O)cc1
→ 0	2049	2	9	1	-18	5.7
- CN(C)CCOCCOc1ccc(Cl)c2ccccc12
→ 2	5554	-7	-1	12	-7	2.3
- CCc1ccc(N=CC23c4ccccc4C(c4ccccc42)C2C(=O)N(c4ccc(OC)cc4)C(=O)C23)cc1 (configuration not stated)
→ 6	9703	-10	8	6	-15	3.8

15 compounds already listed, sorted by SMILES length, ascending:
Screens in order – BJeLR lethal	Bead autofluor	Sa ugtP lethal	Mtb hypoxia rep growth	Mtb hypoxia rep	PrP 5UTR inh	RN4220 kill
- O=C(CCCc1ccccc1)Nc1cccnc1
→ -10	4651	-1	/	/	-44	-1.8
- CN(C)CCOCCOc1ccc(Cl)c2ccccc12
→ 2	5554	-7	-1	12	-7	2.3
- CSC1=NCCN1C(=O)COc1ccc2ccccc2c1
→ 9	6430	1	/	/	-11	1.3
- O=C1N=C(N2CCOCC2)S/C1=C\c1ccncc1
→ 13	4132	-1	9	4	-26	2.7
- COc1ccccc1C=CC(=O)Oc1cccc2cccnc12
→ /	/	-9	5	4	/	5.9
- O=C(NNC(=S)NC(=O)c1cccnc1)c1ccc(F)cc1
→ -3	4230	-3	-3	-6	-20	14
- O=C(NCCc1ccccc1Cl)C1CCC(=O)N(CC2CCCCC2)C1 (configuration not stated)
→ -4	5508	2	-3	6	-19	3.4
- O=C(Cc1ccc(F)cc1)Nc1cccc(S(=O)(=O)N2CCCC2)c1
→ 8	4996	4	-3	7	-15	2.8
- O=C(/C=C\c1ccccc1OC(=O)c1ccccc1F)c1cc2ccccc2o1
→ -13	2029	36	6	4	-86	53
- Cc1cc(OC(C)C(=O)NCc2ccccn2)c2c(C)c(C)c(=O)oc2c1 (configuration not stated)
→ -11	4681	10	0	8	0	3.3
- CC1=CC(O)C(O)C2(C)C1CC1OC(=O)CC3C(C)C(O)C(=O)C2C13CO (configuration not stated)
→ /	2863	3	-4	7	-41	1.9
- O=C(N/C(=C/c1cccc([N+](=O)[O-])c1)C(=O)N1CCCCC1)c1ccco1
→ -3	5418	4	4	14	-23	3.7
- Cc1cccc(NC(=O)CNC(=O)c2ccc(-n3cncn3)c([N+](=O)[O-])c2)c1C
→ -4	5277	5	10	12	-12	-0.8
- COc1ccc(NC(=O)/C(N=Nc2cc(S(=O)(=O)Nc3ccc(OC)cc3)ccc2OC)=C(\C)O)cc1
→ 2	4805	-10	0	-11	9	4.3
- CCc1ccc(N=CC23c4ccccc4C(c4ccccc42)C2C(=O)N(c4ccc(OC)cc4)C(=O)C23)cc1 (configuration not stated)
→ 6	9703	-10	8	6	-15	3.8

Remaining list, next part:
Screens in order – BJeLR lethal	Bead autofluor	Sa ugtP lethal	Mtb hypoxia rep growth	Mtb hypoxia rep	PrP 5UTR inh	RN4220 kill
- CC(=O)NC1=NN(C(C)=O)C(C)(c2cccs2)S1 (configuration not stated)
→ 24	2905	0	7	2	-49	9.5
- COc1ccc(N(CC(=O)Nc2cccc(N(C)S(C)(=O)=O)c2)S(=O)(=O)c2ccc(F)cc2)cc1
→ -3	5019	-6	12	-8	-18	-0.8
- COc1ccc(C2c3c(ccc4ccccc34)Oc3ncn4nc(Cc5ccc(OC)c(OC)c5)nc4c32)cc1 (configuration not stated)
→ -3	/	-1	-11	-8	/	-2.6
- CCCn1nnnc1SCC(=O)NCc1ccc2c(c1)OCO2
→ -4	4082	5	/	/	-19	0.9
- CCC1c2ccc(C)n2CCN1C(=O)Nc1cc(Cl)ccc1OC (configuration not stated)
→ -5	4072	-1	9	10	0	-11
- Cc1nnc(SCC(=O)N(C(C)C)C(C)C)nc1C
→ -4	2974	6	6	6	-9	5.0
- COC(=O)c1ccc(OCC(O)CN2C(=O)c3ccccc3C2=O)cc1 (configuration not stated)
→ -5	3504	4	12	-5	5	2.0
- Cc1ccccc1CN1CCC(n2nccc2NC(=O)c2cccnc2)CC1
→ 4	5529	4	-7	3	-18	-1.2
- CN(C)C(CNC(=O)CCc1c[nH]c2ccccc12)c1ccccc1 (configuration not stated)
→ -2	2972	5	-3	5	-2	7.7
- CCc1cc(C(=O)Nc2cc(S(=O)(=O)N(CC)CC)ccc2N2CCN(C)CC2)sc1C
→ -3	6098	1	7	-4	-33	0.8

Source: PubChem (several laboratories)
